Compound activity: PubChem, National Center for Advancing Translational Sciences (NCATS)
Imprint erasure – qHTS Assay for Compounds that Induce Erasure of Genomic Imprints. mouse ES Peg3-LacZ reporter, beta-gal luminescence, 40 h. Potency, µM (titrated, usually from 60.7 µM), inactives show at the top dose activity change, positive = activation, actives largely listed as activators. 110,000 tested, 0.02% active. AID 1948, 2009; active = well fitted activation curve with a large enough effect; inconclusive = small, poorly fitted or top-dose-only effect; inactive = no such curve, though single readings can be large or run the other way;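 also: 0% = negative control wells on the plate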
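Imprint erasure is scored as LacZ activity from the silenced maternal Peg3 allele in feeder-free female ES cells cultured 40 h with LIF. Luminescence is normalized to in-plate negative controls and fitted to the Hill equation.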
IkB signaling – IkB Signaling; ABC-DLBCL IkBa-CBG/CBR dual luciferase ratio, 4 h; response scale: scaled: untreated 0%, proteasome inhibitor 100%; Potency, µM (series often up to 57.1 µM), for inactives: top-dose IkBa stabilization activation; 110,000 tested, 0.04% active; active = well fitted curve in the direction sought with a large enough effect in the signal ratio, not every such curve was filed as active; inconclusive = small, poorly fitted or top-dose-only effect, or a change in a side signal; the % refers to the signal ratio;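 also: the direction sought is a rising ratio; 0% = basal untreated cells and 100% = reference inhibitor full response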
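In this assay, an IκBα–CBG68 fusion accumulates when IKK-driven degradation is blocked; native CBR normalizes for cell number. OCI-Ly3 cells were treated 4 h with compound and doxycycline, then green and red light read after Chroma-Glo addition.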
An asterisk follows results filed as active; u = inconclusive; x = no result given; & = joins results of further samples; [ ] = remark or other dose. Potency is read from the fitted curve at half-maximal effect.

SMILES	Imprint erasure	IkB signaling
CSc1ccccc1NC(=O)c1cc(CC(C)C)on1	-25%	12%
O=C(Cn1ncc2c1-c1ccccc1OC2)N1CCc2ccccc21	-16%	-0.6%
NCCS	-8%&-24%	0.5%
CC1(C)S[C@@H]2[C@H](NC(=O)C3(N)CCCCC3)C(=O)N2[C@@H]1C(=O)O	-7%[10.9 µM]	0.1%[11.4 µM]
O=C1CCO1	-5%&-2%	0.8%
CNC(=O)c1c(I)c(C(=O)NCC(=O)Nc2c(I)c(C(=O)O)c(I)c(C(=O)NCCO)c2I)c(I)c(N(C)C(C)=O)c1I	-5%[16.8 µM]	0.2%[25.6 µM]
CN1C(=O)CCS(=O)(=O)[C@H]1c1ccc(Cl)cc1	1%	0.1%&1.0%
C[C@H]1OC(OC2C(O)[C@@H](O)C(OC3C(O)[C@@H](O)C(O)O[C@@H]3CO)O[C@@H]2CO)[C@H](O)C(O)C1N[C@H]1C=C(CO)[C@@H](O)[C@H](O)C1O (some centres not stated)	8%	x
CN(C)C1C(=O)C(C(N)=O)=C(O)[C@@]2(O)C(=O)C3=C(O)c4c(O)cccc4[C@](C)(O)C3C(O)C12 (some centres not stated)	-11%	x
OCc1cccnc1	20%	x
Cc1ccc(C(=O)O[C@H](C(=O)O)[C@@H](OC(=O)c2ccc(C)cc2)C(=O)O)cc1 (tested in a mixture with another compound)	-4%	x
CSc1ccc(C=O)cc1	-3%	-1.5%
CCC1(C2=NCCN2)Cc2ccccc2O1 (configuration not stated)	u	x
O=C(O)/C=C/c1cnc[nH]1	-6%	x
O=C1NC(=O)C(c2ccccc2)(c2ccccc2)N1	-18%&1%&5%	0.3%&0.0%
CCCCNN	-4%[10.9 µM]	-0.2%[11.4 µM]
COc1ccccc1N	-6%	1.1%
NC[C@@H](O)c1ccc(O)c(O)c1	-7%	x
CCC1(c2ccc(N)cc2)CCC(=O)NC1=O (configuration not stated)	1%&-13%	x
N[C@H]1C[C@H]1c1ccccc1	-1%[16.8 µM]	-1.8%[25.6 µM]
O=C(c1ccccc1)C(O)c1ccccc1 (configuration not stated)	28%	-0.1%
Cc1c(N)c(=O)n(-c2ccccc2)n1C	-19%	0.8%[25.6 µM]
Cc1cn([C@H]2C=C[C@@H](CO)O2)c(=O)[nH]c1=O	7%&-4%&-8%&4%	-0.1%&-0.4%
NCCC(=O)N[C@H](Cc1cnc[nH]1)C(=O)O	-9%	x
O=C(O)Cc1ccc(OCCNC[C@H](O)c2ccccc2)cc1	-2%	x

(further entries)
SMILES	Imprint erasure	IkB signaling
COc1cccc(C2=NOC(C(=O)NC(C)C)C2)c1 (configuration not stated)	2%	-0.6%
CC(C)C(=O)N1CCN(C2=NS(=O)(=O)c3ccccc32)CC1	2%	1.4%
Cc1nnc(SCC(=O)NCc2cccs2)[nH]c1=O	-1%	-1.5%
CC(O)CC(C)O (configuration not stated)	5%	0.7%
Nc1nc2c(ncn2COC(CO)CO)c(=O)[nH]1	-13%	1.2%[25.6 µM]
CCOC(=O)OCC	6%	1.9%
COc1cc(/C=C/C(=O)/C=C(O)/C=C/c2ccc(O)c(OC)c2)ccc1O	-33%[inhibitor]	x
Cc1c(N)cccc1Cl	2%	-0.8%
COC(=O)NC(=S)Nc1ccccc1NC(=S)NC(=O)OC	-1%&8%	-0.3%
CC(=O)OCc1ccco1	2%	-1.0%
Cc1ccc(-c2cc(C(F)(F)F)nn2-c2ccc(S(N)(=O)=O)cc2)cc1	-11%&-10%	u
Brc1cc(Br)c(Oc2cc(Br)c(Br)cc2Br)cc1Br	2%	0.6%
C[N+]1([O-])[C@@H]2CC[C@H]1CC(OC(=O)[C@@H](CO)c1ccccc1)C2 (some centres not stated)	-5%[16.8 µM]	2.4%[25.6 µM]
CC(C)(S)[C@H](N)C(=O)O	-5%[10.9 µM]	0.6%[11.4 µM]
Cc1cc(C(C)(C)C)c(O)c(C(C)(C)C)c1	-3%&3%	1.0%
c1ccc2[nH]c(-c3cscn3)nc2c1	-17%	0.8%
CN(C)C1C(=O)C(C(N)=O)=C(O)[C@@]2(O)C(=O)C3=C(O)c4c(O)ccc(Cl)c4C(O)[C@H]3C[C@@H]12 (some centres not stated)	-10%	x
OCC1OC(n2cnc3c(=S)nc[nH]c32)C(O)C1O (configuration not stated)	16%	x
CN1C(=O)CCS(=O)(=O)C1c1ccc(Cl)cc1 (configuration not stated)	u	x
CCN1CCN(C(=O)N[C@H](C(=O)N[C@@H]2C(=O)N3[C@@H]2SC(C)(C)[C@@H]3C(=O)O)c2ccccc2)C(=O)C1=O	-3%[16.8 µM]	1.9%[25.6 µM]
O=C(O)c1ccc2c(c1)CC(c1ccccc1)OC2=O (configuration not stated)	-56%[inhibitor]	0.5%
O=C(CCl)c1ccc(Cl)cc1Cl	-24%	u
CCC(C)C(=O)OC1CC(O)C=C2C=CC(C)C(CCC(O)CC(O)CC(=O)O)C21 (configuration not stated)	-19%	x
C=C1C[C@@]23C[C@@]1(O)CC[C@@H]2[C@]12C=C[C@@H](O)[C@](C)(C(=O)O1)[C@@H]2[C@@H]3C(=O)O	6%	x
COc1ccc2cc(CN(CCO)C(=O)c3ccc(Br)cc3)c(=O)[nH]c2c1	-9%	3.4%

Of the compounds above, 9 have a halogen:
SMILES	Imprint erasure	IkB signaling
CNC(=O)c1c(I)c(C(=O)NCC(=O)Nc2c(I)c(C(=O)O)c(I)c(C(=O)NCCO)c2I)c(I)c(N(C)C(C)=O)c1I	-5%[16.8 µM]	0.2%[25.6 µM]
CN1C(=O)CCS(=O)(=O)[C@H]1c1ccc(Cl)cc1	1%	0.1%&1.0%
Cc1c(N)cccc1Cl	2%	-0.8%
Cc1ccc(-c2cc(C(F)(F)F)nn2-c2ccc(S(N)(=O)=O)cc2)cc1	-11%&-10%	u
Brc1cc(Br)c(Oc2cc(Br)c(Br)cc2Br)cc1Br	2%	0.6%
CN(C)C1C(=O)C(C(N)=O)=C(O)[C@@]2(O)C(=O)C3=C(O)c4c(O)ccc(Cl)c4C(O)[C@H]3C[C@@H]12 (some centres not stated)	-10%	x
CN1C(=O)CCS(=O)(=O)C1c1ccc(Cl)cc1 (configuration not stated)	u	x
O=C(CCl)c1ccc(Cl)cc1Cl	-24%	u
COc1ccc2cc(CN(CCO)C(=O)c3ccc(Br)cc3)c(=O)[nH]c2c1	-9%	3.4%

(continued)
SMILES	Imprint erasure	IkB signaling
CCN1C(=O)C=CC1=O	-28%	2.7%
Cc1cccc(-c2nc3c4ccccc4nc(NCc4ccc(Cl)cc4)n3n2)c1	-7%[10.9 µM]	-2.6%
CCN(CC)CC#CCOC(=O)C(O)(c1ccccc1)C1CCCCC1 (configuration not stated)	-18%	x
CNCC[C@@H](Oc1ccc(C(F)(F)F)cc1)c1ccccc1	-45%[inhibitor]	x
C[C@@H]1O[C@H]1P(=O)(O)O	x	-3.0%
CCCCCCCCCCCCOS(=O)(=O)O	2%&-4%	2.0%&3.8%
O=C(O)CCC(=O)C(=O)O	-6%[10.9 µM]	0.4%[11.4 µM]
CNCCC(Oc1ccc(C(F)(F)F)cc1)c1ccccc1 (configuration not stated)	-30%&-27%&-29%[inhibitor]	x
CC(=O)CC(c1ccccc1)c1c(O)c2ccccc2oc1=O (configuration not stated)	-15%	x
C[C@@]12CCC(=O)C[C@@H]1CC[C@@H]1[C@@H]2CC[C@]2(C)C(=O)CC[C@@H]12	-9%	x
OC(CCN1CCCCC1)(c1ccccc1)C1CCCCC1 (configuration not stated)	-15%&-6%	x
CN(C)C1C(=O)C(C(N)=O)C(=O)C2(O)C(=O)C3C(=O)c4c(O)cccc4C(C)(O)C3C(O)C12 (configuration not stated)	-14%	x
COc1cc2c(cc1OC)[C@@H]1C(=O)c3ccc4oc(C(C)C)cc4c3OC1CO2 (some centres not stated)	-30%	x
CN(Cc1cnc2nc(N)nc(N)c2n1)c1ccc(C(=O)NC(CCC(=O)O)C(=O)O)cc1 (configuration not stated)	-9%	x
CC[C@@H]1CN2CCc3cc(OC)c(OC)cc3[C@H]2C[C@@H]1C[C@H]1NCCc2cc(OC)c(OC)cc21	-18%[16.8 µM]	u
O=C(O)COCCN1CCN([C@@H](c2ccccc2)c2ccc(Cl)cc2)CC1	0%[16.8 µM]	2.7%[25.6 µM]
CCC(C)C(NC(=O)OC(C)(C)C)C(=O)NCc1ccco1 (configuration not stated)	1%	1.4%
CC1(C)S[C@@H]2[C@@H](NC(=O)[C@@H](N)c3ccccc3)C(=O)N2[C@H]1C(=O)O	x	-0.9%[11.4 µM]
C=C(C)C1Cc2c(ccc3c2OC2COc4cc(OC)c(OC)cc4C2C3=O)O1 (configuration not stated)	-40%[inhibitor]	x
CC(C)C=O	2%	-0.7%
CCC(=O)OCC(=O)C1(OC(=O)CC)C(C)CC2C3CCC4=CC(=O)C=CC4(C)C3(Cl)C(O)CC21C (configuration not stated)	-12%	x
Cc1ccc(NC(=O)Cn2nc(C)c3ccccc3c2=O)cc1F	13%	1.3%
Cc1cc(/C=C\c2ccc3cc(N(C)C)ccc3[n+]2C)c(C)n1-c1ccccc1	-34%[inhibitor][16.8 µM]	u
C=C1C[C@@]23C[C@]1(O)CC[C@@H]2[C@]12C=C[C@@H](O)[C@](C)(C(=O)O1)[C@H]2[C@H]3C(=O)O	4%[16.8 µM]	-0.5%[25.6 µM]
CO[C@@H]1C=CO[C@]2(C)Oc3c(C)c(O)c4c(O)c(c(C=NN5CCN(C)CC5)c(O)c4c3C2=O)NC(=O)C(C)=CC=C[C@H](C)[C@H](O)[C@H](C)[C@H](O)[C@H](C)[C@H](OC(C)=O)[C@H]1C	-10%[16.8 µM]	1.2%[25.6 µM]

Entries above containing a tert-butyl group, in the order listed:
SMILES	Imprint erasure	IkB signaling
Cc1cc(C(C)(C)C)c(O)c(C(C)(C)C)c1	-3%&3%	1.0%
CCC(C)C(NC(=O)OC(C)(C)C)C(=O)NCc1ccco1 (configuration not stated)	1%	1.4%

(continued)
SMILES	Imprint erasure	IkB signaling
O=C(O)CC(C(=O)O)C(CC(=O)O)C(=O)O (configuration not stated)	-1%	1.9%
CNC1C(O)C(O)C(CO)O[C@H]1OC1C(O[C@@H]2C(O)C(O)[C@@H](N=C(N)N)C(O)C2N=C(N)N)OC(C)[C@]1(O)C=O (some centres not stated)	-3%	x
CN[C@H]1[C@@H](O[C@@H]2[C@H](O[C@@H]3[C@@H](O)[C@@H](O)[C@@H](N=C(N)N)[C@@H](O)[C@@H]3N=C(N)N)O[C@H](C)[C@@]2(O)C=O)O[C@@H](CO)[C@@H](O)[C@H]1O	-8%[16.8 µM]	0.6%[25.6 µM]
CC(C)(C)c1ccc(OCC2CO2)cc1 (configuration not stated)	-6%	0.9%
COc1ccc(C(=O)N2CCCC2=O)cc1	-2%&-7%&5%&4%	6.5%&-0.1%&-2.6%
CC(=O)[C@H]1CC[C@H]2[C@@H]3CCC4=CC(=O)CC[C@]4(C)[C@H]3CC[C@]12C	-1%&-19%&-14%&-8%	3.6%&0.1%
O=C(OC1CCCCC1)c1ccc2c(c1)C1C=CCC1C(C(=O)O)N2 (configuration not stated)	2%	4.7%
C/C(C=O)=C/c1ccccc1	-1%	0.1%

Exported with two lines to a compound: entries from further up.
Results follow in this order: Imprint erasure, IkB signaling
CCCCCCCCCCCCOS(=O)(=O)O
    2%&-4%, 2.0%&3.8%
CC1(C)S[C@@H]2[C@@H](NC(=O)[C@@H](N)c3ccccc3)C(=O)N2[C@H]1C(=O)O
    x, -0.9%[11.4 µM]

Not all compounds are listed, and most or all hits are left out here.
